Source: PubChem BioAssay (ICCB-Longwood Screening Facility, Harvard Medical School)
CapD inh: blocks the Bacillus anthracis CapD enzyme; purified CapD enzyme, fluorescence intensity read-out; hits give low values; some hits fall short of the stated cut; z-score (no concentration beside the values); 140,000 tested, 0.23% active; AID 492967;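 active means z-score under -4 in either of two replicates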;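 further: stock transfer was 100 nL into about 40 µL; score is relative to mean and spread of the plate; one replicate is shown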
AID504770: growth inhibitors of E. coli YBA685 in a screen for V. cholerae RctB (chromosome II replication) inhibitors | E. coli YBA685 rctB-dependent plasmid, OD600 growth, 3 h; hits give low values | 130,000 tested, 0.27% active | z-score (no concentration beside the values);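 active means z-score under -2 on both plates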;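 further: wells of about 30 µL received 100 nL stock; score is relative to mean and SD of the test wells; the first replicate is given; strong numbers were not always called active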
Starred values were filed as active, the others as inactive; i = inactive; . = no result given.

Fields – CapD inh	AID504770
1	CCn1c(SCC(=O)NCCc2ccccc2)nnc1-c1c[nH]c2ccccc12
    3.8	0.15
2	Cn1c(O)c(N=N)c2ccccc21
    .	0.85
3	O=C(O)C1CC(=O)N(CCc2c[nH]c3ccccc23)C1 (centres undefined)
    -0.38	1.4
4	Cc1ccc(-c2cc(Cc3ccc(N(C)C)cc3)c(=O)[nH]n2)cc1
    -0.64	-0.05
5	FC(F)(F)c1cccc(Sc2nc3ccccc3nc2C(F)(F)F)c1
    -0.41	.
6	C#CCn1c(-c2ccccc2)cc(C)c(S(=O)(=O)c2ccccc2)c1=O
    0.81	.
7	CCOC(=O)C1=C(C)N=c2s/c(=C3\C(=O)N(CC)c4ccccc43)c(=O)n2C1c1ccc(OC)cc1 (centres undefined)
    0.29	.
8	CC1CCc2c(sc3nc(-c4cccs4)oc(=O)c23)C1 (centres undefined)
    -0.97	.
9	O=C1CC(c2ccc(F)cc2)CC(O)=C1C1NCCc2ccccc21 (centres undefined)
    -0.32	-0.4
10	N#C/C=C(\Sc1nc2ccccc2o1)c1ccccc1
    -0.46	-0.7
11	Cc1cc(C)n(-c2nc(C)nc3sc4c(c23)CCC4)n1
    2	0.3
12	O=C(NCCc1ccsc1)c1cc2c(s1)-c1ccccc1OC2
    0.41	0.4
13	S=c1[nH]nc(Cn2cnc3ccccc32)n1-c1ccccc1Cl
    .	-0.9
14	CCc1ccc(NC(=O)CCC(=O)Nc2ccc3nc(N4CCCCC4)cc(C)c3c2)cc1
    0.67	-1
15	Cc1ccccc1OCC(=O)Oc1ccc(-c2cnc3ccccc3n2)cc1
    -0.51	-0.95

Shown in transposed form: 5 of the compounds above
4) Cc1ccc(-c2cc(Cc3ccc(N(C)C)cc3)c(=O)[nH]n2)cc1
5) FC(F)(F)c1cccc(Sc2nc3ccccc3nc2C(F)(F)F)c1
6) C#CCn1c(-c2ccccc2)cc(C)c(S(=O)(=O)c2ccccc2)c1=O
7) CCOC(=O)C1=C(C)N=c2s/c(=C3\C(=O)N(CC)c4ccccc43)c(=O)n2C1c1ccc(OC)cc1 (centres undefined)
8) CC1CCc2c(sc3nc(-c4cccs4)oc(=O)c23)C1 (centres undefined)

Compound | 4 | 5 | 6 | 7 | 8
CapD inh | -0.64 | -0.41 | 0.81 | 0.29 | -0.97
AID504770 | -0.05 | . | . | . | .

(next part)
Fields – CapD inh	AID504770
16	O=c1cc(Nc2cccc(Br)c2)[nH]c(=O)[nH]1
    .	-0.8
17	CC1CC(Nc2ccccc2)c2ccccc2N1C(=O)/C=C/c1ccco1 (centres undefined)
    -1.5	.
18	Cc1c(C(=O)NCc2ccccc2)oc2ccccc12
    -0.085	0.9
19	CC(C)(C)OC(=O)CSc1nnc(-c2nn(Cc3ccccc3)c(=O)c3ccccc23)o1
    .	0.25
20	NNC(=O)c1ccc(/C=N\O)nc1
    1.9	-0.6
21	COc1ccc(OC)c(NS(=O)(=O)c2cc(C(F)(F)F)ccc2OCC(F)(F)F)c1
    3.1	.
22	C=CCNC(=O)c1c[nH]c2ccc(S(=O)(=O)N(C)c3ccc(OCC)cc3)cc2c1=O
    -0.69	-0.55
23	Cc1ccc(N2CCN(c3ccc(C)cc3)C23C(=O)c2ccccc2C3=O)cc1
    -0.21	0.05
24	Cc1nnc(SC(C)C(=O)c2ccc(Br)cc2)n1C (centres undefined)
    .	0.3
25	CCSc1nnc(NC(=O)C2CC2)s1
    -0.075	-1.2
26	O=c1c2c3c(sc2[nH]c(=S)n1Cc1ccccc1)CCCCC3
    0.34	0.25
27	CC[C@@H]1OC(=O)[C@H](C)[C@H](O[C@H]2C[C@@](C)(OC)[C@@H](O)[C@H](C)O2)[C@@H](C)[C@@H](O[C@@H]2O[C@H](C)C[C@H](N(C)C)[C@H]2O)C(C)(O)C[C@@H](C)[C@@H]2NC(COCCOC)OC([C@H]2C)[C@]1(C)O (some centres undefined)
    -0.52	.
28	CC(OC(=O)c1ccco1)C(=O)Nc1nc(-c2ccccc2)cs1 (centres undefined)
    .	-0.45
29	Nc1c(C(=O)c2ccc(Cl)cc2)sc2nsc(SCCN3CCOCC3)c12
    -1.3	-0.15
30	Clc1ccc(SCc2ccc(-c3nc4ccccc4[nH]3)cc2)cc1
    -0.91	.

Single entries from the results shown.
AID504770 result of cpd 11 → 0.3
CapD inh result of cpd 7 → 0.29
AID504770 result of cpd 9 → -0.4

Continued:
Fields – CapD inh	AID504770
31	CC(C)(C)c1ccc(OCCSc2nc3ccccc3n2CC(N)=O)cc1
    0.2	.
32	Cc1cc(C(=O)N2CCC3(CC2)OCCO3)no1
    1	-0.5
33	c1ccc(CN2CCCNCC2)cc1
    0.34	.
34	NC(=O)C1CCCCN1CC(=O)N1N=C(c2ccc(Cl)cc2)CC1c1ccco1 (centres undefined)
    .	-0.2
35	O=c1c(-c2nc(-c3ccc(C(F)(F)F)cc3)no2)cnc2n1CCS2
    12	0.3
36	O=S(=O)(CCSc1ccccc1)c1ccc(Cl)cc1
    0.11	.
37	C[n+]1c2cc(N)ccc2cc2ccc(N)cc21
    -0.015	-1.1
38	CCOC(=O)C1=C(C(=O)OCC)SC(=C2C(=S)C(C)(C)N(C(=O)c3ccc(F)cc3)c3ccc(C)cc32)S1
    -1.7	.
39	O=C(c1ccc(F)cc1)n1ccc(-c2nn(-c3ccccc3)ccc2=O)n1
    -0.015	.
40	Cc1ccc(NC(=O)N2CCC3(CC2)OCCO3)cc1Cl
    1.1	-0.15
41	C=CCOc1ccc2c3c(c(=O)oc2c1)CCC3
    -0.43	0.25
42	O=C(NCCN1C(=O)S/C(=C\c2ccccc2)C1=O)C1CCCC1
    .	-0.35
43	COC(=O)C1=C(C)NC2=C(C(=O)CC(c3cccs3)C2)C1c1cccs1 (centres undefined)
    30	1.8
44	CNc1nc(OC(C(F)(F)F)C(F)(F)F)nc(N2CCC[C@H]2C(=O)O)n1
    0.1	.
45	S=C(NCCCn1ccnc1)Nc1ccccc1
    .	-0.5

(continued)
Fields – CapD inh	AID504770
46	Cc1ccc2cc3cc(C(=O)NCC4COc5ccccc5O4)sc3nc2c1 (centres undefined)
    0.06	-0.7
47	O=c1[nH]c(CCl)nc2ccccc12
    17	-0.45
48	Cc1ccc(S(=O)(=O)/C(C#N)=C/Nc2cc(C(F)(F)F)cc(C(F)(F)F)c2)cc1
    -0.67	0.25
49	CC(C#N)Oc1ccc(-c2ccc(C#N)cc2)cc1 (centres undefined)
    .	-0.35
50	Cc1nc(Sc2nnc(C3CC3)o2)c2c(-c3ccccc3)csc2n1
    .	1.1
51	CCOc1ccc(-n2nc(C(=O)NCC3CCCN3CC)c3ccccc3c2=O)cc1 (centres undefined)
    0.48	.
52	O=C(CC12CC3CC(CC(C3)C1)C2)N1CCN(c2ccc(F)cc2)CC1
    0.49	-0.5
53	COc1ccc(N2C(=O)c3nccnc3C2=O)cc1Cl
    -0.42	2.1
54	CCOC(=O)c1c(N2CCN(c3ccccc3)CC2)cc(C)nc1C
    -0.52	2.4
55	CCn1c(O)c(C=Nc2ccc(Cl)c(C(=O)O)c2)c(=O)[nH]c1=O
    -2	-0.55
56	CC(=O)NC1C(OC2=CC3OC(=O)CC(C)=C3C=C2)OC(CO)C(O)C1O (centres undefined)
    .	-0.2
57	O=C1NC2CC2N1C(=O)OCc1ccccc1 (centres undefined)
    0.33	.
58	CCOC(=O)C1=C(C)N=c2s/c(=C\c3cc(Br)ccc3OC(C)=O)c(=O)n2C1c1cccc([N+](=O)[O-])c1 (centres undefined)
    -0.02	.
59	CC(Oc1ccccc1)c1nc(-c2cccc(Br)c2)no1 (centres undefined)
    -0.16	1.9
60	COc1ccc2c(c1)cc1n2CCN=C1N
    7.5	-1.3

Additional results follow.
Fields – CapD inh	AID504770
61	Cc1ccc(N2C(=O)C3C4c5ccccc5C(C)(c5ccccc54)C3C2=O)c([N+](=O)[O-])c1 (centres undefined)
    -0.29	.
62	CCC(=O)OC(Cc1ccccc1)(c1ccccc1)C(C)CN(C)C (centres undefined)
    0.45	.
63	COc1ccc(-c2cc(C(=O)Nc3ccc(C)c(C)c3)no2)cc1
    0.42	1.1
64	O=C(Nc1cccnc1)c1coc(=O)c2ccccc12
    -0.29	0.4
65	CCn1c2ccccc2c2cc(CN3CCN(C(=O)OCc4ccc(C)cc4C)CC3)ccc21
    7.9	.
66	N#Cc1ccc(COc2ccc(-n3cnnn3)cc2)cc1
    .	-0.25
67	CC(Oc1ccccc1)C(=O)N(Cc1nc(-c2ccccc2)no1)C(C)(C)C (centres undefined)
    0.095	-0.5
68	O=S(=O)(NCCC12CC3CC(CC(C3)C1)C2)c1cccc2nsnc12
    17	-0.15
69	O=C(/C=C/c1ccccc1)N1CCN(Cc2ccccc2)CC1
    0.18	-0.35
70	Nc1cc(=O)nc(SCC(=O)Nc2ccc(Cl)cn2)n1-c1ccccc1
    -1.2	-0.15
71	Cc1onc(-c2c(Cl)cccc2Cl)c1NC(=O)O/N=C/c1ccc(N(C)C)cc1
    0.2	.
72	O=C(Nc1ccnn1C1CCCC1)c1cccnc1Oc1ccccc1
    .	-0.6
73	O=C(CN1C(=O)c2ccccc2C1=O)Nc1ccc(S(=O)(=O)Nc2ncccn2)cc1
    0.21	-0.2
74	CC(=O)NN1C(=O)c2cccc3c(N(C)C)ccc(c23)C1=O
    6	-0.1
75	CCCCc1nc(SCC(=O)Nc2cc(C)on2)n[nH]1
    -0.17	.

Ordered by molar mass (largest number first): 3 of the compounds above
Fields – CapD inh	AID504770
34	NC(=O)C1CCCCN1CC(=O)N1N=C(c2ccc(Cl)cc2)CC1c1ccco1 (centres undefined)
    .	-0.2
17	CC1CC(Nc2ccccc2)c2ccccc2N1C(=O)/C=C/c1ccco1 (centres undefined)
    -1.5	.
55	CCn1c(O)c(C=Nc2ccc(Cl)c(C(=O)O)c2)c(=O)[nH]c1=O
    -2	-0.55

More records follow.
Fields – CapD inh	AID504770
76	CSc1ccc(Cl)c(C(=O)OCC(=O)N2CCC(C)CC2)c1
    4	0.25
77	CCOc1ccc(CC(C(=O)NN)C(=O)NN)cc1CN(C)C
    .	-0.05
78	O=C(c1ccccc1)c1ccc2nc(N3CCCCC3)c3nncn3c2c1
    -0.31	-0.25
79	CC(C)(C)c1cc2cc(N(Cc3ccccn3)C(=O)Nc3ccccc3)ccc2[nH]1
    -0.39	.
80	COc1ccc2nc(Nc3ccccc3)sc2c1
    -0.97	-0.45
81	O=C(OCc1cn2ccccc2n1)c1ccc2c(c1)OCCO2
    .	-1.1
82	Cc1cc(C)c2c(n1)SCC(=O)N2CC(=O)O
    -0.28	0.25
83	Cc1csc(NC(=O)CC(C)(C)CC(=O)O)c1-c1nc2ccccc2s1
    -0.24	-0.25
84	O=S(=O)(c1ccccc1Cl)N1CCN(C(c2ccccc2)c2ccc(Cl)cc2)CC1 (centres undefined)
    -0.42	.
85	Cc1cc2ccccc2nc1SCCN1CCOCC1
    .	1.4
86	COC(=O)Cc1nc(NC(=O)c2ccccc2)sc1C
    0.34	-0.05
87	CC(C)C1NC(C(=O)O)Cc2c1[nH]c1ccccc21 (centres undefined)
    7.2	1.6
88	CCCc1ccc(OCC(O)CN2CC(C)OC(C)C2)cc1 (centres undefined)
    3.8	-0.8
89	CN1C(=O)N(C)C(=O)C(CCc2ccncc2)(CCc2ccncc2)C1=O
    0.7	0
90	COc1ccc2[nH]c3c(=O)n(N)c(=S)[nH]c3c2c1
    1.8	0.8

New compounds follow.
Fields – CapD inh	AID504770
91	O=C(CSC1=NCCS1)N1CCCc2ccccc21
    1.3	.
92	CC1S/C(=N\N=C2\CCCc3ccccc32)NC1=O (centres undefined)
    .	0.3
93	O=C(NCc1n[nH]c(=S)n1Cc1ccccc1)c1ccccc1
    .	-0.2
94	O=C1CN(C(=O)Cn2cnc3ccc(Cl)cc3c2=O)c2ccccc2N1
    .	0.35
95	COc1ccc(CNC(=O)CCC2N=C3c4ccccc4N=C(SCC(=O)Nc4cc(C)[nH]n4)N3C2=O)cc1 (centres undefined)
    3.8	-1.5
96	CCN1C(=O)c2ccccc2Sc2ccc(C(=O)O)cc21
    0.69	-0.2
97	Cc1ccccc1NC(=S)NCC(c1cccnc1)N(C)C (centres undefined)
    -0.47	-0.45
98	COc1ccc(N2CCN(C(=O)C(NS(=O)(=O)c3ccc4nc(C)sc4c3)C(C)C)CC2)cc1 (centres undefined)
    0.045	-0.75
99	COc1ccc(-c2cc3cc(OC)c(OC)cc3c(Cc3cccc4ccccc34)n2)cc1
    0.12	.
100	O=C(Nc1cccc(C(F)(F)F)c1)c1ccc(F)cc1
    -0.74	1.9
101	CC(NC(=O)c1cc(-c2ccc3c(c2)OCO3)nc2ccccc12)C1CCCO1 (centres undefined)
    13	-0.8
102	C=CCc1c(C)nc(Sc2c(-c3ccccc3)c3ccc(Cl)cc3[nH]c2=O)[nH]c1=O
    1.3	.
103	O=[N+]([O-])c1c(Sc2ncnc3nc[nH]c23)ccc2nsnc12
    -0.21	.
104	O=C(CSc1nnc(-c2ccccc2)o1)N1CCCC1
    -0.25	0.7
105	CCN(Cc1ccccc1)S(=O)(=O)c1ccc(F)c(C(=O)Nc2ccc(Br)cc2F)c1
    -0.34	.

(cont.)
Fields – CapD inh	AID504770
106	O=S(=O)(CCOc1ccccc1)N1CCOCC1
    i	-0.15
107	CC(C)(C)NC(=O)c1ccccc1NC(=O)c1cccnc1
    5.8	-0.55
108	CCc1nn(C(CC)C(=O)NCc2ccccc2F)c(=O)c2cc3occc3n12 (centres undefined)
    -0.035	0.1
109	CC(NC(=O)c1ccco1)C(=O)N1CCc2ccccc2C1 (centres undefined)
    .	-0.6
110	N/C(=N\O)c1cnccc1C(F)(F)F
    -0.78	.
111	Cc1onc(-c2c(Cl)cccc2Cl)c1C(=O)NC(=S)Nc1ccccc1
    0.08	-0.25
112	COC(=O)CN1c2ccccc2NC2=C(C(=O)CC(C)(C)C2)C1c1ccc(OC)cc1 (centres undefined)
    0.45	-0.05
113	O=C(CSc1ccc2c(c1)OCCO2)NC(=O)NC1CCCC1
    .	0.55

This is a subset. The share of hits here may be higher or lower than overall.
